Vaccinia Venus – qHTS for Stage-Specific Inhibitors of Vaccinia Orthopoxvirus: Venus Reporter Primary qHTS. actives 0.46% (n = 330,000). Potency, µM (top dose mostly 36.5 µM), for the others: top-dose activity change, negative = inhibition, actives largely listed as inhibitors. Vaccinia virus Venus reporter expression, fluorescence; active means well fitted inhibition curve with a large enough effect; inconclusive means small, poorly fitted or top-dose-only effect; inactive means no such curve, though single readings can be large or run the other way; tested in A549 cells; further: nearly all actives have a fitted effect of over 30% in size; inactives centre near -10
VACV mCherry inh – qHTS for Stage-Specific Inhibitors of Vaccinia Orthopoxvirus: mCherry Reporter Primary qHTS | Vaccinia virus mCherry reporter infection, fluorescence; about a quarter of the inactives have no number | actives 0.63% (n = 310,000) | Potency, µM (doses to about 36.5 µM), without a hit: top-dose activity change, negative = inhibition, usual class: inhibitors | AID 720579, 2013; active = well fitted inhibition curve with a large enough effect; inconclusive = small, poorly fitted or top-dose-only effect; inactive = no such curve, though single readings can be large or run the other way; tested in A549 cells; further: nearly all actives have a fitted effect of over 35% in size; inactives centre near -10
The depositor's hits bear a star; i = inactive; ? = inconclusive; nt = no result given; [ ] = dose if it differs, or a comment. On the % scale 0 is the no-effect control and ±100 the full control effect; potency means the concentration at half of the fitted maximal effect.

SMILES	Vaccinia Venus	VACV mCherry inh
COc1ccc(-n2c(=O)[nH]cc(C(=O)Nc3ccc(NC(C)=O)cc3)c2=O)cc1	-16%	i
CN(C)/C=N/c1c(C#N)nnn1Cc1ccccc1	-4%	-8%
Cc1ccc(Cn2cccc(NS(C)(=O)=O)c2=O)cc1	4%	-13%
Cc1ccc(S(=O)(=O)N2CCOCC2)cc1NC(=O)CSc1nnc2cc(C)c3ccccc3n12	-29%	-15%
COc1ccc(C2CC(c3cccs3)=NN2C(=O)CN2CCCCC2)cc1 (centres undefined)	-8%	-15%
COc1ccc(/C(N)=N/OC(=O)N2CCOCC2)cc1	-9%	i
CC(C)NC(=O)N(C)C[C@@H]1OCc2cnnn2CCCC(=O)N([C@@H](C)CO)C[C@H]1C	-17%	i
CC(=O)c1ccc(OC(=O)C2c3ccccc3Oc3ccccc32)cc1	0%	-9%
CC(=O)Nc1cc(-c2ccc(CO)cc2)cn2c(-c3ccc(F)c(Cl)c3)cnc12	-11%	i
Cc1ccccc1N(CC(=O)NC1CCCC1)C(=O)CS(=O)CC(=O)Nc1ccc2c(c1)OCO2 (centres undefined)	-7%	-14%
O=C(CCN1CCN(C(c2ccccc2)c2ccccc2)CC1)N/N=C/c1ccc(O)cc1O	?	20µM*
Cc1nc2ccc(N3CCN(C)CC3)cc2nc1C	-12%	-2%
CCCn1c(SCC(=O)N2CCN(c3ccc(OC)cc3)CC2)nc2c1c(=O)n(C)c(=O)n2C	-8%	i
Cc1nn(C)c(Cl)c1C(N)=O	-5%	i
CCN(CC(=O)NCc1ccccn1)S(=O)(=O)c1cc(Cl)ccc1Cl	2%	-18%
O=C(CNC(=O)c1ccco1)NCC(=O)OCc1ccc(F)cc1	-4%	i
CCCC(c1nnnn1Cc1ccc(OC)cc1)N1CCN(c2ccccc2OC)CC1 (centres undefined)	-29%	nt
O=C(O)CCNC(=O)c1ccc(Br)o1	4%	nt
CC(C)C[C@@H]1CC2=C(C(=O)OC(C)(C)O2)[C@H](CCc2ccccc2)O1	-1%	-8%
CCN(Cc1ccncc1)C(=O)CCc1nnc(CCc2ccc(OC)cc2)o1	-17%	-7%
COc1ccc(CC(=O)N2CCCC(CNC(=O)c3ccccc3Cl)C2)cc1 (centres undefined)	-13%	i
CC1CCN(c2ccc(-c3cccc(NS(=O)(=O)c4cccs4)c3)nn2)CC1	-11%	-10%
Cc1sc2ncn(CC(=O)N3CCN(c4ccccc4)CC3)c(=O)c2c1S(=O)(=O)N1CCOCC1	-7%	i
CC(C)CNC(=O)CC1Nc2ccccc2NC1=O (centres undefined)	3%	-3%
CCC(C(=O)O)n1nc(-c2ccccc2)c2cc(Cl)ccc21 (centres undefined)	-1%	-6%
COc1ccc(S(=O)(=O)Nc2ccc3c(c2)C(=O)N([C@H](C)CO)C[C@@H](C)[C@@H](CN(C)S(=O)(=O)c2ccc(Cl)cc2)O3)cc1	?	-29%
Cc1csc(NCC(=O)c2c[nH]c3ccccc23)n1	-23%	-5%
C#CCNC(=O)C1=C[C@@H](C2CCCCC2)C[C@@H](OCc2ccc(CO)cc2)O1	-13%	?
CN1CCN(C(=O)c2c(O)c3cccc4c3n(c2=O)CC4)CC1	6%	-6%
O=S(Cc1cc(Sc2ccccc2)nc(-c2ccccc2)n1)c1ccccc1 (centres undefined)	-26%	nt
CCOc1ccccc1NC(=O)c1cnn2c(C(F)F)cc(-c3ccccc3)nc12	-22%	?
Cc1ccc(C)c(CN2C(=O)CSc3ccc(C(=O)N4CCCC4)cc32)c1	-1%	7%
CCn1c(SCc2nc(-c3ccc(OC)c(OC)c3)no2)nnc1-c1cccs1	-22%	-26%
CC1SC(c2ccc(F)cc2)NC1=O (centres undefined)	-10%	-3%
CC(=O)Nc1cc(-c2ccc(F)cc2)cn2c(-c3ccc(S(C)(=O)=O)cc3)cnc12	3%	12%
Cc1cccc(Cc2nnc(CCC(=O)N(CC3CC3)CC3CCCO3)o2)c1 (centres undefined)	-11%	i
CC(C)c1ccccc1OCC(=O)N(C)CC(=O)Nc1ccc(F)cc1	-16%	-17%
CCCCN(C(=O)c1cc(CN2C(=O)c3ccccc3C2=O)ccc1OC)c1c(N)n(CC(C)C)c(=O)[nH]c1=O	-6%	-17%
Cc1cc(/C=C(\C#N)C(=O)NCc2ccco2)c(C)n1-c1cccnc1	3%	2%
Cc1cccc2c1N(C(=O)c1ccco1)C(C)(C)c1ssc(=S)c1-2	-2%	-14%
O=C(CN(c1ccccc1)S(=O)(=O)c1ccccc1)N1CCOCC1	2%	-14%
Cn1c(-c2ccccc2)cnc1SCC(=O)N1CCCc2ccccc21	-8%	-10%
C#CCN(C[C@@H]1[C@@H](OC(=O)NCc2ccc(OC)c(OC)c2)[C@@H](OC(=O)NCc2ccc(OC)c(OC)c2)Cn2c(=O)ccc(=O)n21)S(=O)(=O)c1ccc(C)cc1	?	?
Cn1c(=O)c2c(nc(NCc3ccccc3)n2Cc2ccccc2Cl)n(C)c1=O	-1%	-14%
COc1ccc(NC(=O)N(Cc2nnc3n2CCCCC3)c2ccc(OC)c(Cl)c2)cc1	10%	2%

Whole records, quoted from the list. Order of values: Vaccinia Venus	VACV mCherry inh
Cc1ccc(C)c(CN2C(=O)CSc3ccc(C(=O)N4CCCC4)cc32)c1 across the screens: -1%	7%
CCn1c(SCc2nc(-c3ccc(OC)c(OC)c3)no2)nnc1-c1cccs1 across the screens: -22%	-26%
CC(C)c1ccccc1OCC(=O)N(C)CC(=O)Nc1ccc(F)cc1 across the screens: -16%	-17%

The list continues.
SMILES	Vaccinia Venus	VACV mCherry inh
CC(C)(C)N1CC2([N+](=O)[O-])CN(C(C)(C)C)CC([N+](=O)[O-])(C1)C2	-5%	nt
O=C(COc1ccc(-n2cnnn2)cc1)NCCc1ccc(F)cc1	-10%	-20%
O=C(OCc1ccccc1Cl)C1CC(=O)N(Cc2ccco2)C1 (centres undefined)	4%	-5%
CC(=NNC(=S)Nc1ccccc1Cl)c1ccccn1	?	?
Cc1csc(=O)n1CC(=O)OCC(=O)NNC(=O)c1ccccc1	-2%	-13%
Cc1cccc(C(=O)NC(C(=O)Nc2nc(-c3ccccn3)cs2)C(C)C)c1 (centres undefined)	?	?
CC(=O)c1ccc(NC(=S)N2CCCCCC2)cc1	-4%	-7%
Cc1ccc(Cl)cc1N1CCN(C(=O)C2CCCN(S(=O)(=O)c3ccc(Br)s3)C2)CC1 (centres undefined)	-28%	?
Cc1[nH]c2ccccc2c1CCNC(=O)CCC(=O)c1ccccc1	-7%	i
O=C(OCC1CCCN2CCCCC12)c1ccc2c(c1)OCO2 (centres undefined)	-11%	i
Cc1csc2nc(CCNS(=O)(=O)c3ccccc3)cn12	-2%	-4%
O=C(CCn1nc(-c2ccccc2)ccc1=O)NCCCN1CCCCCC1	-12%	-9%
COc1ccc(C(=O)N/C(=C\c2ccc3c(c2)OCO3)C(=O)Nc2cccc(C(=O)O)c2)cc1	-7%	-2%
Cc1nc(NC(=O)CN2CCOCC2)sc1C(=O)N(C)C	-8%	-9%
COC(=O)c1nc[nH]c1C(=O)OC	4%	4%
CC1=CC2=NC(=O)/C(=C\c3cccn3CCOc3cccc(C)c3)C(=N)N2O1	-15%	i
Cc1c(NC(=O)c2sc3ccccc3c2Cl)cccc1-c1nc2ccccc2o1	-6%	-20%
COc1ccc(-c2nc(-c3ccccc3)ncc2S(C)(=O)=O)cc1	8%	0%
COc1ccc(S(=O)(=O)N2CCCCC2c2cc(C(=O)Nc3ccc(OC)cc3C)no2)cc1 (centres undefined)	-3%	i
CN(C)S(=O)(=O)c1cccc(NC(=O)C2CCCN(C(=O)c3ccc(Cl)cc3)C2)c1 (centres undefined)	-6%	-10%
Cc1ccc2c(c1)C1CN(C)CCC1N2C(=S)Nc1ccc(OC(F)F)cc1 (centres undefined)	-19%	-18%
Cc1nc2ccc(C(=O)OCC(=O)N(C)c3ccccc3)cc2nc1C	-14%	i
O=C(CCc1nnc(Cc2c[nH]c3ccccc23)o1)NCCC1CCCCO1 (centres undefined)	-14%	i
CCCSc1nc2c(c(=O)[nH]1)C(c1ccc(F)cc1F)CC(=O)N2 (centres undefined)	-15%	-5%
COc1ccc(CN2CCNC(=O)C2CC(=O)NC2CCCCCC2)c(F)c1 (centres undefined)	-21%	-2%
Cc1ccc(-n2c(C)nnc2SCC(=O)NC2CCCC2)cc1	-20%	?
N#C/C(=C\c1ccc(OC(=O)c2ccc(Cl)s2)cc1)c1nc2ccccc2[nH]1	-6%	-19%
O=C(CN(Cc1ccco1)C(=O)CNS(=O)(=O)c1ccc(F)cc1)NCCc1ccccc1	-22%	-19%
C#CCN1CCc2onc(-c3ccccc3OC)c2C1=O	0%	56%[activator]
O=C(O)CC(SCC(=O)Nc1ccc(S(=O)(=O)N2CCCC2)cc1)C(=O)O (centres undefined)	-17%	i
O=C(Cc1ccccc1F)Nc1nc(-c2ccc(F)c(F)c2)cs1	-7%	i
Cc1cccc(Oc2nccc(C(F)(F)F)c2C(=O)Nc2ccc(F)cc2F)c1	-28%	-1%
Cc1cc(Nc2cccc(Cl)c2)nc2ccc(NC(=O)Cc3cccc(C(F)(F)F)c3)cc12	-19%	-15%
Cc1sc2ncn(CC(=O)N(C)c3ccc(C(C)C)cc3)c(=O)c2c1S(=O)(=O)N1CCC(C)CC1	-9%	-14%
COCCNC(=O)Cc1cn(C)c2ccccc12	?	nt
COC(=O)c1cccc(CC2(C)C(=O)Nc3cc(-c4ccccc4Cl)ccc32)c1 (centres undefined)	-15%	i
CSc1n[nH]c(NC(=O)c2c(-c3c(Cl)cccc3Cl)noc2C)n1	-15%	-23%
Cn1nc(C(=O)OCC(=O)c2ccc[nH]2)c2ccccc2c1=O	-6%	-11%
N#Cc1cc2c(nc1SCc1ccccc1)CCCCC2	0%	-10%
O=C(CN1C(=O)CCS(=O)(=O)c2ccccc21)Nc1cccc(F)c1	-19%	nt
Cc1c(NC(=O)c2ccc(=O)oc2)c(=O)n(-c2ccccc2)n1C	-12%	i
O=C(CCC(=O)Nc1ccccc1)N/N=C/C=C/c1ccccc1	-4%	-13%
C=CCNC(=O)C1(c2ccccc2)CC1(Cl)Cl (centres undefined)	-5%	-11%
CCOc1ccc(NC(=O)Nc2cccnc2)cc1	5%	-12%
CC(=O)c1ccc(NCC(=O)N2CCN(c3ccccc3)CC2)cc1	-10%	nt

Fetched by compound from the list above, 4 records:
SMILES	Vaccinia Venus	VACV mCherry inh
COC(=O)c1cccc(CC2(C)C(=O)Nc3cc(-c4ccccc4Cl)ccc32)c1 (centres undefined)	-15%	i
Cc1cc(Nc2cccc(Cl)c2)nc2ccc(NC(=O)Cc3cccc(C(F)(F)F)c3)cc12	-19%	-15%
O=C(CN1C(=O)CCS(=O)(=O)c2ccccc21)Nc1cccc(F)c1	-19%	nt
CSc1n[nH]c(NC(=O)c2c(-c3c(Cl)cccc3Cl)noc2C)n1	-15%	-23%

Continuation.
SMILES	Vaccinia Venus	VACV mCherry inh
CC1CC(NC(=O)C2C3CCC(O3)C2C(=O)O)CC(C)(C)C1 (centres undefined)	-17%	-26%
CCN(CC)C(=O)c1cnn(-c2ccccc2)c1NC(=O)c1cccs1	-2%	nt
Cc1cc(C)c(NC(=O)CCN2CCN(Cc3ccccc3)CC2)c(C)c1	-8%	-24%
CC1(CC(=O)N/N=C/c2cc(Br)c(O)cc2O)OCCO1	-12%	i
CCN(CC(=O)NCc1cccs1)C(=O)c1cccc(S(=O)(=O)Nc2ccccc2OC)c1	-8%	-6%
Cc1ccc(C(=O)NCCCN2CCOCC2)cc1	-5%	nt
COc1ccc(-c2ccc(CCC(=O)O)n2-c2ccccc2O)cc1	-2%	-8%
COC(=O)c1cc(S(=O)(=O)n2nc(C)c(Br)c2C)c(Cl)cc1Cl	-3%	-9%
C=CCN(Cc1cc(OC)ccc1OC)S(=O)(=O)N(C)C	-16%	nt
COc1ccc(-c2nc(CS(=O)(=O)CC(=O)NCCCN3CCOCC3)c(C)o2)cc1	-13%	-23%
O=C(Nc1cccc(NC(=S)NC(=O)c2cccs2)c1)c1ccccc1	-24%	-2%
COc1ccc(NC(=O)NN2CCN(C)CC2)cc1	-5%	i
CCCC(=O)N1CCN(c2ccc(NC(=O)c3ccc4c(c3)OCCO4)cc2)CC1	-4%	-8%
O=S(=O)(NCCSc1ccccn1)c1ccc(Br)cc1	6%	-5%
COc1ccc(NC(=O)Cn2c(=O)n(-c3ccc(OC)cc3)c(=O)c3ccc(C(=O)NCc4ccc(C)cc4)cc32)cc1	-18%	-6%
Cc1ccc(S(=O)(=O)CCc2nnc(NC(=O)c3cccs3)s2)cc1	-3%	-9%
COC(=O)c1ccc(/C=C2/SC(=S)N(CCC(=O)NCCCN3CCOCC3)C2=O)cc1	5%	11%
Cc1cc(NC(=O)CSCC(=O)Nc2nc3c(C)cccc3s2)no1	-12%	-1%
COCC(=O)Nc1cc(=O)n(C)c(=O)n1C	1%	i
Cc1cc([P+](=O)O)c(C)n1-c1ccc(Br)cc1	-12%	-15%
CCN(CC(=O)Nc1c(F)cccc1F)C(=O)/C=C/c1ccc(C)o1	-7%	-3%
COc1ccc(-n2ncc(C(=O)N3CCN(C4CCCCC4)CC3)c2C2CCN(C(=O)OC(C)(C)C)CC2)cc1	-20%	-15%
Cc1ccc(C(=O)NCc2ccco2)cc1S(=O)(=O)N1CCCCC1	-19%	i
CNS(=O)(=O)c1c(C)cc(C)c(N(C)S(=O)(=O)c2ccccc2)c1C	-20%	-1%

As a working copy, some entries already given.
SMILES	Vaccinia Venus	VACV mCherry inh
Cc1ccc(C(=O)NCc2ccco2)cc1S(=O)(=O)N1CCCCC1	-19%	i
CNS(=O)(=O)c1c(C)cc(C)c(N(C)S(=O)(=O)c2ccccc2)c1C	-20%	-1%

Screening results from PubChem BioAssay.
